Ecoli growth: E. coli growth inhibition, primary screen, OD600. AID 1053175, 2014. Escherichia coli growth, 23 h; active compounds read low. 0.21% of 330,000 active. OD600 absorbance (concentration not given with the values);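 active means OD600 absorbance below the run mean of sample wells minus 3.6 SD, in any replicate, cut at about 0.56 in these data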;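 further: stock transfer was 300 nL into about 60 µL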
UCH37 DUB inh: inhibitors of human UCH37 deubiquitinase, primary screen, biochemical, Ub-AMC cleavage, fluorescence | purified proteasome/UCH37 | inhibition, % (concentration not given with the values) | 0.33% of 330,000 active;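 active means mean of two replicates above 20%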;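 further: 0% = compound-free wells with enzyme and 100% = wells lacking proteasome; stock transfer was 100 nL into about 20 µL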
Target sequence (Q9Y5K5 whole entry, looked up): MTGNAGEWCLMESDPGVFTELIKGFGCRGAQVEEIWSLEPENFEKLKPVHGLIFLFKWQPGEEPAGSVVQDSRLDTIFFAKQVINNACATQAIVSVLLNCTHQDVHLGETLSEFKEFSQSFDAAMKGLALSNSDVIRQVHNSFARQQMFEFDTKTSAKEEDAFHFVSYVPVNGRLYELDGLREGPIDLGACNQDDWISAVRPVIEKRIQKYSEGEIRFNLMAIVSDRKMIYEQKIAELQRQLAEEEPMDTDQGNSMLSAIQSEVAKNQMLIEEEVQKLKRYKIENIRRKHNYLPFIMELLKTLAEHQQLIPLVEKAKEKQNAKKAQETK
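assay system = human UCH37 enzyme supplied as purified proteasome complex | amount = proteasome at 0.15 nM in the dispensed enzyme solution | schedule = 30 min compound-proteasome preincubation then 25 min substrate reaction, room temperature | measured by = fluorescence, ex 355 nm, em 460 nm | benchmarks = no-proteasome wells (full inhibition) and compound-free wells (no inhibition)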
HNF4A DNA FP: change in binding of human HNF4A to DNA, primary screen, biochemical, fluorescence polarization, FITC-DNA; Hepatocyte nuclear factor 4-alpha (Homo sapiens), P41235; 1 h; activity change, % at 10 µM; 0.3% of 360,000 active; AID 1224865, 2016; in the data active means activity change above about 30%, passing the limit was not always enough;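 further: controls were the assay level and a saturating level of protein; the project sought stronger binding though the title names inhibitors; some compounds called inactive have numbers as strong as hits; positive values seem to mean higher polarization but the record does not say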
rRNA inh HTS: reduced GFP signal of wild-type E. coli, primary screen, bacterial rRNA inhibitor project, GFP/RFP fluorescence, OD600, single point; E. coli WT GFP vs humanized-ribosome RFP mutants, 24 h; active compounds read low; DMSO median 0, no signal -100; GFP signal change (wild-type ribosome), % (test concentration not listed); 1.6% of 350,000 active;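 active means significant combined selectivity score with lowered wild-type GFP, culture density cut under 30%, mutant RFP and density less affected; inactive means any of these conditions unmet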; further: one replicate is shown; some compounds called inactive have numbers as strong as hits
FGF22 binding: binders of human FGF22 protein, primary screen, FGF22 synaptogenesis inhibitor project, biophysical, thermal shift, single point. Fibroblast growth factor 22 (Homo sapiens), Q9HCT0. recombinant FGF22 thermal shift, SYPRO orange fluorescence; percent of sucrose octasulfate shift, DMSO zero. calls only at 9.99 µM. 1.5% of 340,000 active. AID 651658, 2012;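 active means melting point raised past a set limit in the mean and every replicate; inconclusive means no clear call; three in four hits are not shown here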
Target sequence (Q9HCT0 whole entry, looked up): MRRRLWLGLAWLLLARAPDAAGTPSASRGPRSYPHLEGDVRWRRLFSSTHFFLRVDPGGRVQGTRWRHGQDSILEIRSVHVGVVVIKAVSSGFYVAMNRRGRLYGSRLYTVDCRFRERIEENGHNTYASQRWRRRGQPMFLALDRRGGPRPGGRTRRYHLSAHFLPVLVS
ALR H2O2 inh: inhibitors of human ALR sulfhydryl oxidase, primary screen, biochemical, H2O2 detection, HRP-luminol luminescence, single point; 3.8% of 290,000 active; purified ALR, DTT oxidation; inhibition, % (concentration not given with the values);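 active means mean and each replicate at 75% or more; inconclusive means only one of the two met; inactive means neither met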;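 further: stock transfer was 7.5 nL into about 7.5 µL; 0% = neutral wells and 100% = wells with inactivated enzyme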
B2AR ag: beta2AR agonists driving receptor internalization, primary screen, cell-based, FAP fluorogen, flow cytometry; Am2.2-beta2AR cells; reference of the scale not given here; response, % (concentration not given with the values); 0.43% of 340,000 active; AID 504454, 2011;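 active means response above a set limit, near 3 SD of response in nonfluorescent compounds, cut at about 42% in these data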;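 further: stock transfer was 100 nL into about 11 µL; a reference agonist was the positive control; negative values mostly stem from fluorescent compounds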
Target sequence (P07550 whole entry, looked up): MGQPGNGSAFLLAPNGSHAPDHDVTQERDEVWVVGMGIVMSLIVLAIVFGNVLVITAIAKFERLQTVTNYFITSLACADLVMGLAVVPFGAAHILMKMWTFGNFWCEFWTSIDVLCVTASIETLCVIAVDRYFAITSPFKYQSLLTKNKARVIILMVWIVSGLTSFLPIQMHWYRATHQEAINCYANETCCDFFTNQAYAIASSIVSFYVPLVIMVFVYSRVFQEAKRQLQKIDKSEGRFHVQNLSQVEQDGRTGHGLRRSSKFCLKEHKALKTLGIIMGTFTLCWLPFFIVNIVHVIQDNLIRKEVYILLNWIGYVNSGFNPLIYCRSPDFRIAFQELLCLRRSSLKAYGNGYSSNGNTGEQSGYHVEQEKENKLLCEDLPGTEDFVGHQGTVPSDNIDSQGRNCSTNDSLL
rRNA inh HTS OD600: further read-out of rRNA inh HTS, marked with its call; OD600 change, %; measured here: OD600 growth;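 optical density of the mix in the first replicate; 0 = DMSO median and -100 = no signal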
rRNA inh HTS RFP: also measured in rRNA inh HTS; calls as there; RFP signal change, %; measured here: RFP humanized mutant strains;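 first replicate; 0 = DMSO median and -100 = no signal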
An asterisk follows results filed as active; i = inactive; ? = inconclusive; nt = no result given.

SMILES	Ecoli growth	UCH37 DUB inh	HNF4A DNA FP	rRNA inh HTS	rRNA inh HTS OD600	rRNA inh HTS RFP	FGF22 binding	ALR H2O2 inh	B2AR ag
CC(=O)Nc1ccc(Oc2ccc(-c3noc(C)n3)cc2)cc1	0.74	-2.7	1.1	nt	nt	nt	nt	-16	-14
O=C(C1CCN(S(=O)(=O)c2c(Cl)cccc2Cl)CC1)N1CCCC1	0.7	2.0	0.2	nt	nt	nt	i	-2	-1
Clc1ccc(-c2nc3c4ccccc4ccn3c2CC2CCCCC2)cc1	nt	nt	15	11	20	3.1	i	nt	nt
CCOc1ccc(NC(=O)CCC(=O)Nc2cc(OC)c(NC(=O)c3ccco3)cc2OC)cc1	0.73	-2.4	3.9	6	6	-0.8	i	nt	-7
CN(C)CC(=O)N1c2ccccc2CCc2ccc(NC(=O)c3ccc(N)cc3)cc21	0.73	3.2	0.9	nt	nt	nt	nt	nt	4
COc1cc2c(cc1OC)C(C)N(C(=O)c1cc3n(n1)C(C(F)(F)F)CC(c1ccco1)N3)CC2 (stereo not drawn)	0.69	0.5	-3.3	nt	nt	nt	nt	-1	6
CC(=O)OCc1cc(=O)n(C)c(=O)n1C	0.7	1.3	1.6	nt	nt	nt	nt	-4	-1
Cc1ccc(C)c2c1[nH]c1ccccc12	0.66	-0.2	-5.8	nt	nt	nt	nt	3	5
O=C(Cc1cccc(NC(=O)C2CCCN(C(=O)C3CCC3)C2)c1)Nc1cccc(C(=O)N2CCCCC2)c1 (stereo not drawn)	0.7	0.7	-2.4	-10	-7	3.7	i	nt	-3
CC1CC(=O)C2=C(C1)Nc1ncnn1C2c1ccccc1 (stereo not drawn)	0.71	1.4	-4.5	-2	11	-5.7	nt	1	8
O=C(NCCOCC(F)(F)C(F)F)c1cc(F)c(F)cc1Cl	0.74	5.3	0.0	4	3	-9.8	i	-4	5
CCOc1ccc(CNS(=O)(=O)c2ccc(-c3ccc(=O)[nH]n3)o2)cc1OC	0.65	0.6	-1.0	-1	7	2.4	i	-4	-5
N/C(=N\OC(=O)N1c2ccccc2Sc2ccccc21)c1ccc(Br)cc1	0.64	0.5	3.3	-30	-17	4.9	i	2	10
Cn1c(=O)c(=O)n(C)c2cc(S(=O)(=O)CCC(=O)Nc3ccccc3C(F)(F)F)ccc21	nt	nt	-5.5	8	11	4.6	i	nt	nt
COc1ccc(-n2c(SCC(N)=O)nc3nc4c(cc3c2=O)COC(C)(C)C4)cc1	nt	nt	-0.2	nt	nt	nt	nt	2	-6
CCOc1ccc(-n2c(=S)sc3c(=O)[nH]c(SCC(=O)NCC4CCCO4)nc32)cc1 (stereo not drawn)	0.7	12	-3.4	-1	0	-8.9	i	nt	-13
COc1ccc(Cl)cc1S(=O)(=O)N1CCCC1	0.67	4.0	-2.4	nt	nt	nt	nt	-3	5
O=C(COC(=O)COc1ccccc1)Nc1ccc(Cl)cn1	0.7	1.6	-1.7	7	10	0.6	i	2	5
O=C(NCCc1ccccc1)C1CCC(CNS(=O)(=O)c2ccccc2)CC1 (stereo not drawn)	0.68	0.7	-2.7	0	0	0.2	i	1	2
O=C(c1ccco1)N1CCC(c2nc3ccccc3[nH]2)CC1	0.68	-0.1	3.3	9	1	0.1	i	-7	-3
COc1ccc(S(=O)(=O)NCC(=O)N(CC(=O)NCC2CCCO2)c2cc(C)ccc2C)cc1 (stereo not drawn)	0.72	3.4	3.2	nt	nt	nt	nt	7	1
COc1ccc(C(=O)Nc2ccc(S(=O)(=O)N3CCOCC3)cc2)cc1[N+](=O)[O-]	0.65	1.9	-0.2	-4	-1	-2.9	i	nt	16
Cc1cc2c(cc1C)C(c1cccc(F)c1)CC(=O)N2 (stereo not drawn)	0.68	1.3	-2.0	-4	-2	-2.2	i	12	2
COc1cccc(-c2cc(C(F)(F)F)nc(-n3ccc([N+](=O)[O-])n3)n2)c1	0.72	1.0	-5.4	5	0	0.2	i	nt	-18
Cc1ccc(C(=O)OCC(=O)NCc2cccs2)cc1S(=O)(=O)N1CCOCC1	0.72	-2.2	6.6	-1	10	-1.6	i	-1	-5
O=C(Cc1ccccc1)Nc1ccc2c(c1)C(=O)N(CC1CCCO1)C2=O (stereo not drawn)	0.71	-342	-2.2	3	0	-1.9	i	nt	1
Cc1ccc(NC(=O)Cn2cnc3c(nnn3Cc3ccc(F)cc3)c2=O)cc1	0.68	3.7	-0.7	3	6	2.6	i	-3	1
CCCn1c2c(c(O)c(C(=O)Nc3ccc(OC)cc3)c1=O)CCCC2	0.61	0.4	-0.8	nt	nt	nt	nt	-1	3
CCCCc1nnc(NC(=O)CCN2C(=O)C3CC=CCC3C2=O)s1 (stereo not drawn)	0.68	1.6	6.4	nt	nt	nt	i	2	6
Cc1ccc(C(=O)N2CCN(c3ccc(NC(=O)c4ccc5c(c4)OCCO5)cc3)CC2)cc1	0.68	1.5	1.1	3	16	6.6	i	-12	27
Cc1cc(C)n(-c2ccc(C(=O)OCC(=O)c3c(N)n(C)c(=O)n(C)c3=O)cc2)n1	0.73	0.7	0.1	nt	nt	nt	nt	-5	5
Cc1cccc(N(Cc2ccccc2)C(=O)c2ccc(CS(C)(=O)=O)cc2)c1	0.75	0.4	-1.1	7	1	1.8	i	-45	-7
CC1(C)C(=O)Nc2ccccc2N1C(=O)c1ccc([N+](=O)[O-])cc1	0.61	4.0	1.8	-4	4	1.2	i	-24	3
O=C(c1cc(F)c(F)cc1Cl)N1CCCCC1	0.74	0.7	-1.4	nt	nt	nt	nt	0	1
O=c1[nH]c(CN2CCN(CCO)CC2)nc2ccccc12	nt	nt	-0.4	nt	nt	nt	nt	-1	-2
O=C(O)c1ccc(NC(=S)NC(=O)c2cccnc2)cc1	0.74	2.3	-0.6	9	5	-3.5	i	68	2
COc1ccc(-c2cc3ccccc3n2CC(O)CNCCO)cc1 (stereo not drawn)	0.7	-6.7	-4.1	nt	nt	nt	nt	1	5
CCOC(=O)C1C2C=CC3(CN(Cc4cccs4)C(=O)C13)O2 (stereo not drawn)	0.69	5.1	1.6	nt	nt	nt	nt	-2	8
CC(C)c1cccc(C(C)C)c1OC(=O)[C@H]1OC(c2ccc(Br)cc2)=C[C@@H]1c1ccc(Br)cc1	nt	-2.2	2.5	9	16	-7.0	i	-14	14
COC(CN(C)C(C(=O)NC1CCCCC1)c1ccccc1)OC (stereo not drawn)	0.71	0.2	2.3	-6	-3	1.1	i	-1	-2
COc1cccc(OC)c1OCCN1CCC(C(=O)NC(c2ccc3c(c2)OCO3)c2ccccn2)CC1 (stereo not drawn)	nt	nt	-5.4	15	-5	3.4	i	nt	nt
Cc1cccc2c1NC(=O)C2(O)N1CCCC(C)C1 (stereo not drawn)	0.66	3.9	2.4	6	6	0.3	i	-3	-5
O=C1c2ccccc2C(c2nnnn2-c2ccc3c(c2)OCCO3)N1CCOc1ccccc1 (stereo not drawn)	nt	nt	3.6	-14	-15	3.3	i	nt	nt
COC(=O)c1[nH]c2ccc(C)cc2c1NC(=O)C(C)N1CCN(C2CCCCC2)CC1 (stereo not drawn)	0.74	-17	-2.0	nt	nt	nt	nt	7	0
CCn1ncc(C2=NOC(C(=O)Nc3c(C)n(C)n(-c4ccccc4)c3=O)C2)c1C (stereo not drawn)	0.69	0.4	-0.1	8	0	3.0	i	-4	9
OCCC1CN(Cc2ccc(C(F)(F)F)cc2)CCN1Cc1ccccc1 (stereo not drawn)	0.64	-0.6	1.3	-15	-10	-2.2	i	nt	4
CSC1=NCCN1C(=O)c1ccc(S(=O)(=O)N(C)C)cc1	0.74	-0.1	-0.6	6	9	-0.1	i	-1	3
O=C(NNC(=O)c1ccc(Oc2cc(Cl)cc(Cl)c2)o1)c1ccccc1	0.63	8.3	-1.4	12	13	3.9	i	-2	1
CCN(CC(=O)Nc1c(F)cccc1F)C(=O)CCc1c[nH]c2ccccc12	0.69	2.1	2.2	3	0	-2.3	nt	30	-3
O=C(CCCN1C(=O)c2ccccc2C1=O)NC1=NCCS1	0.66	3.0	-1.8	nt	nt	nt	nt	nt	-4
CCCC(=O)Nc1cc(Cl)ccc1N1CCN(C(=O)CC)CC1	0.66	5.7	1.8	11	10	0.9	i	-3	-6
CC1CC(C)(C)NC(=S)N1CC(=O)NCc1ccccc1Cl (stereo not drawn)	0.68	3.2	2.5	1	16	3.2	i	11	2
O=C(COc1ccc(Cl)cc1)Nc1ccc(C(=O)O)cc1NC(=O)COc1ccc(Cl)cc1	0.69	1.0	0.9	-16	-15	1.8	i	9	0
Cc1ccc(C)c(N2N=C(C(=O)Nc3nccs3)CCC2=O)c1	0.73	6.6	2.6	10	-4	2.3	i	-8	-4
COc1cc(Cl)c(CNC[C@H]2O[C@@H](n3cnc4c(N)ncnc43)[C@H](O)[C@@H]2O)c(Cl)c1O	0.66	0.1	-0.2	6	12	5.0	i	nt	1
CC(=O)Nc1ccc(S(=O)(=O)N(C)CC(=O)OCC(=O)N(C)C2CCS(=O)(=O)C2)cc1 (stereo not drawn)	0.69	3.4	-0.8	-2	3	2.0	nt	-3	2
CC(C)(CN1CCc2ccccc2C1)NS(=O)(=O)c1ccccc1	0.63	3.6	0.7	-4	-14	-4.5	i	0	4
COc1ccc(NC2CCCN(C(=O)c3cccc(N(C)C)c3)C2)cc1 (stereo not drawn)	0.7	0.8	1.4	2	8	-2.0	i	nt	-3
Cc1cc(C(=O)N/N=C/c2c(CO)cnc(C)c2O)c2ccccc2n1	nt	nt	6.8	-8	-4	-1.0	i	42	3
O=C(NC(=S)Nc1cccnc1)c1cccc(Br)c1	0.69	2.6	3.0	-5	-1	-0.4	i	30	-10

Next results follow:
SMILES	Ecoli growth	UCH37 DUB inh	HNF4A DNA FP	rRNA inh HTS	rRNA inh HTS OD600	rRNA inh HTS RFP	FGF22 binding	ALR H2O2 inh	B2AR ag
Cc1ccc(C(C)(C)C)cc1S(=O)(=O)N1CC(=O)Nc2ccccc21	0.67	0.5	-1.5	-32	-43	-7.0	i	-5	6
O=C(CCC(=O)Nc1ccccc1Cl)NNC(=O)c1ccccc1[N+](=O)[O-]	0.66	3.5	-0.8	21	18	-1.1	i	nt	-8
Cc1[nH]c2ccccc2c1[C@H]1[C@@H](CC#N)C1(C)C	0.67	2.5	0.1	nt	nt	nt	nt	?	0
O=C(CN1C(=O)c2ccccc2C1=O)N1CCN(c2nnc(-c3ccccc3)c3ccccc23)CC1	0.72	5.7	3.0	nt	nt	nt	nt	-1	-11
CCCCc1nc(NCCO)c(C#N)c2c1CCCC2	0.67	-18	4.1	-13	-29	-5.4	i	-2	6
CCS(=O)(=O)Nc1ccc(C2=NN(S(C)(=O)=O)C(c3cccs3)C2)cc1 (stereo not drawn)	nt	nt	1.3	0	-2	2.5	i	-2	2

Reformatted with values under each structure: part of the list above
Value order: Ecoli growth | UCH37 DUB inh | HNF4A DNA FP | rRNA inh HTS | rRNA inh HTS OD600 | rRNA inh HTS RFP | FGF22 binding | ALR H2O2 inh | B2AR ag
- O=C(CN1C(=O)c2ccccc2C1=O)N1CCN(c2nnc(-c3ccccc3)c3ccccc23)CC1
    0.72 | 5.7 | 3.0 | nt | nt | nt | nt | -1 | -11
- CCCCc1nc(NCCO)c(C#N)c2c1CCCC2
    0.67 | -18 | 4.1 | -13 | -29 | -5.4 | i | -2 | 6
- O=C(CCC(=O)Nc1ccccc1Cl)NNC(=O)c1ccccc1[N+](=O)[O-]
    0.66 | 3.5 | -0.8 | 21 | 18 | -1.1 | i | nt | -8

From PubChem

A portion of the library (hit frequency here may not be typical).
